Screening results as filed in PubChem.
Lassa entry inh: Lassa virus entry inhibition. Potency, µM (top dose mostly 37.9 µM), for inactives: at the top dose activity change, negative = inhibition, hits mostly inhibitors. hit rate 1.2% among 300,000. Lassa virus pseudotype entry inhibition, cell reporter; control for the full effect not named in the record; active means well fitted inhibition curve with a large enough effect; inconclusive means small, poorly fitted or top-dose-only effect, or effect the other way; inactive means flat fitted curve, though single readings scatter; tested in HEK293 cells; further: on the % scale 0 is the no-effect control and ±100 the full control effect; nearly all actives have a fitted effect of over 50% in size; luciferase read-out
NS1 inh: influenza NS1 inhibition | S. cerevisiae slowed by influenza A NS1, growth recovery by OD600 | Potency, µM (doses to about 46.1 µM), for the others: at the top dose activity, positive = more growth | hit rate 0.4% among 270,000; active means well fitted rising curve with a large enough effect; inconclusive means small, poorly fitted or top-dose-only effect; inactive means no such curve, though single readings can be large or run the other way; further: nearly all actives have a fitted effect of over 50% in size
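OD600 was taken as the measure of yeast growth restored by compound in an NS1-expressing S. cerevisiae strain. Cells had been washed out of glucose medium and diluted 1:100 into galactose -URA medium, pH 6.0.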
SARS PLP yeast: blocks SARS-CoV papain-like protease in a yeast assay; S. cerevisiae expressing SARS-CoV PLpro, growth rescue; control for the full effect not named in the record; hit rate 0.19% among 330,000; Potency, µM (series often up to 32.9 µM), without a hit: at the highest dose activity, positive = growth rescue; active means well fitted rising curve with a large enough effect; inconclusive means small, poorly fitted or top-dose-only effect; inactive means no such curve, though single readings can be large or run the other way; further: 0% is about no effect; nearly all actives have a fitted effect of over 55% in size; growth read by luminescence after 48 h
Cruzain inh Det: blocks cruzain activity in presence of Triton detergent | P25779 | purified cruzain, Z-FR-AMC fluorescence, 0.01% Triton | Potency, µM, without a hit: max response, negative = inhibition, actives largely listed as inhibitors | hit rate 0.43% among 200,000 | AID 1478;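 further: plate controls were neutral wells for no effect and buffer without enzyme for full effect; nearly all actives have a fitted effect of over 40% in size; top concentration of the series not given in the record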
Target sequence (P25779 123-467 limits assumed): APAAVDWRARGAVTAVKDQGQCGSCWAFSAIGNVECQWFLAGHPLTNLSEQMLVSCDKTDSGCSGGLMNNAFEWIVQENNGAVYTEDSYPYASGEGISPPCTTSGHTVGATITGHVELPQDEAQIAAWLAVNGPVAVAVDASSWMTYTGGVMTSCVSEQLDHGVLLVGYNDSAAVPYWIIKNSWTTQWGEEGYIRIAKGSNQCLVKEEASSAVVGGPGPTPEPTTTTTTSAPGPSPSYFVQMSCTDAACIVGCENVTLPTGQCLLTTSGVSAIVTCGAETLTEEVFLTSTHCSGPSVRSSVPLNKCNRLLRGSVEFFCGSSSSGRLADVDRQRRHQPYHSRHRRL
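Detergent-containing run (0.01% Triton X-100) in acetate buffer pH 5.5 with 5 mM DTT: enzyme at 1.5 nM final, 15 min compound preincubation at room temperature, then 2 uM Z-FR-AMC substrate. Activity taken as 60 s fluorescence increase at 360/450 nm.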
Cruzain inh noDet: inhibitors of Trypanosoma cruzi cruzain without detergent. Potency, µM, inactives show max response, negative = inhibition, most hits filed as inhibitors. P25779. AID 1476. hit rate 2.3% among 200,000. purified cruzain, Z-FR-AMC fluorescence, no detergent;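 further: plate controls were enzyme without inhibitor for no effect and buffer without enzyme for full effect; nearly all actives have a fitted effect of over 40% in size; top concentration of the series not given in the record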
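Purified cruzain at 1.5 nM, pre-incubated 15 min with compound at room temperature in 100 mM sodium acetate pH 5.5, 5 mM DTT, 0.00005% Triton X-100. Reaction started with 2 uM Z-FR-AMC; AMC fluorescence increase over 60 s gives rate.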
MARV entry inh: Marburg virus entry inhibition | Potency, µM (doses to about 37.8 µM), without a hit: top-dose activity change, negative = inhibition, hits mostly inhibitors | Marburg virus pseudotyped entry inhibition, cell reporter; control for the full effect not named in the record; about a third of the inactives were read at about 46 µM | hit rate 1.8% among 300,000 | AID 540276; active = well fitted inhibition curve with a large enough effect; inconclusive = small, poorly fitted or top-dose-only effect, or effect the other way; inactive = flat fitted curve, though single readings scatter; tested in HEK293 cells; about a fifth of its hits are not listed in these tables; further: on the % scale 0 is the no-effect control and ±100 the full control effect; luciferase read-out
Starred values were filed as active, the others as inactive; ? = inconclusive; . = no result given; & = joins results of further samples; [ ] = remark or other dose. Unless noted, the call rests on the fitted dose curve; in most records, active means well fitted curve in the direction sought with a large enough effect; inconclusive means small, poorly fitted or top-dose-only effect, or another doubt; inactive means no such curve, though single readings can be large; an effect the other way counts as inactive or inconclusive. Potency means the concentration at half of the fitted maximal effect. Only part of the results is shown (hit frequency here may not be typical).

SMILES	Lassa entry inh	NS1 inh	SARS PLP yeast	Cruzain inh Det	Cruzain inh noDet	MARV entry inh
O=C1CCC=C1C(O)CCc1ccccc1 (stereo not given)	.	.	.	4.4%	-3.9%	34.3%&34.3%[14.2 µM]
C[C@H](O)CON1C(=O)c2ccccc2C1=O	.	.	.	2.4%	-2.5%	16.7%&16.7%[14.2 µM]
COC(=O)C1(C(=O)OC)C/C=C\Cc2ccccc2[C@@H]1C[N+](=O)[O-]	.	.	.	0.8%&-1.9%&-2.4%	-0.7%&-14.0%&-0.4%	3.3%&3.3%&3.3%[14.2 µM]
O=C1CCCC1C(O)c1ccc2ccccc2c1 (stereo not given)	.	.	.	6.9%	7.4%	?
NCCc1c[nH]c2ccc(O)cc12	.	.	.	1.5%	2.8%	?
CC1(OC(=O)c2cccs2)C(=O)C=C2C=C(c3ccsc3)OC=C2C1=O (stereo not given)	.	.	.	2.5%	-5.8%	-11.7%&-11.7%[14.2 µM]
O=C1NC[C@H](c2ccccc2)N1	.	.	.	3.9%	-10.7%	-12.7%&-12.7%[14.2 µM]
N[C@H](Cn1ccc(=O)c(O)c1)C(=O)O	.	.	.	0.2%&1.7%	7.9%&4.8%	1.2%&1.2%
Oc1ccc2c(c1-c1c(O)c(Br)cc3c1CCCC3)CCCC2	.	.	.	0.1%	3.5%	26.3%&26.3%[14.2 µM]
COC(=O)N[C@H](C[N+](=O)[O-])c1cccc(C)c1	.	.	.	0.8%	6.0%	?
Cc1ccccc1Nc1oc(-c2ccccc2)nc1-c1ccccc1	.	.	.	0.4%	-9.4%	?
COC1=CC(=O)O[C@@H](/C=C\c2ccccc2)C1	.	.	.	1.3%	-4.1%	18.4%
COc1cccc(-c2coc3ccc(Br)cc3c2=O)c1	.	.	.	8.2%	-11.6%	60.8%&60.8%[14.2 µM]
CN1[C@H](CC(=O)c2ccccc2)CCC[C@H]1C[C@@H](O)c1ccccc1	.	.	.	1.0%	-1.5%	-43.0%
C=CCOC(=O)N[C@@H](Cc1ccccc1)/C(C(=O)OC)=C(\C)NCc1ccccc1	.	.	.	1.6%	-8.5%	-10.9%[14.2 µM]
C=C(C(C)=O)C(O)c1ccc(C(F)(F)F)cc1 (stereo not given)	.	.	.	3.2%	-5.4%	-12.9%&-12.9%[14.2 µM]
COC(=O)NC(c1ccccc1)C1(C(=O)OC)C(=O)Cc2ccccc21 (stereo not given)	.	.	.	0.1%	-13.5%	11.4%&11.4%[14.2 µM]
CN1[C@@H](CC(=O)c2ccccc2)CCC[C@@H]1C[C@@H](O)c1ccccc1	.	.	.	-2.5%	-7.0%	-43.0%
COC(=O)N[C@@H](c1cccc(F)c1)[C@@H](C)[N+](=O)[O-]	.	.	.	2.8%	-5.0%	-16.8%&-16.8%[14.2 µM]
CC1(C)O[C@@H]2[C@@H](O1)C(c1ccccc1)(c1ccccc1)OP(=O)(O)OC2(c1ccccc1)c1ccccc1	.	.	.	-10.3%	?	?
C=C(C(C)=O)C(O)c1ccc(Cl)cc1 (stereo not given)	.	.	.	3.5%	4.1%	1.1%&1.1%[14.2 µM]
COC(=O)CCC(=O)OC1(C)C(=O)C=C2C=C(C3CC3)OC=C2C1=O (stereo not given)	.	.	.	0.8%	2.9%	-9.1%&-9.1%[14.2 µM]
CCN(CC)C(=O)[C@]1(c2ccccc2)C[C@@H]1CN	.	.	0.2%	.	.	-7.2%
Cc1ccc2c(c1)-n1c(nc3cc(F)ccc3c1=O)C(Cc1ccccc1)NC2=O (stereo not given)	.	.	-1.9%	.	.	-0.6%
CCCC[C@]12Cc3cc(C#N)ccc3C(O1)c1c(cc(C)n(Cc3ccccc3)c1=O)O2	.	18.9%	-9.0%[6.58 µM]	.	.	-22.7%[14.2 µM]
O=C1CCCC2=C1C1O[C@](CCCCN3C(=O)c4ccccc4C3=O)(Cc3ccccc31)O2	.	-45.2%	3.1%[6.58 µM]	.	.	-1.7%[14.2 µM]
COc1ccc(OCc2cc(C(=O)O)c(C)o2)cc1	.	-2.4%	1.0%	.	.	3.4%
COc1ccc([C@]23Cc4cc(OC)c(OC)cc4C(O2)C2=C(CC(C)(C)CC2=O)O3)cc1	.	21.6%	?	.	.	20.0%[14.2 µM]
CC[C@H]1OC(=O)C[C@@H](O)[C@H](C)[C@@H](O[C@@H]2O[C@H](C)C[C@H](N(C)C)[C@H]2O)[C@@H](CC=O)C[C@@H](C)C(=O)C=C[C@]2(C)O[C@H]2[C@@H]1C	.	-48.0%	-4.3%	.	.	-2.1%
COc1ccc([C@]23Cc4cc(C#N)ccc4C(O2)c2c(cc(-c4ccccc4)oc2=O)O3)cc1	.	14.9%	-7.8%[6.58 µM]	.	.	7.0%[14.2 µM]
CCN1C(=NCCc2c[nH]c3ccccc23)N[C@@H](c2ccccc2)C(C(=O)OC)=C1C	.	-2.4%&11.2%	14.0%&0.4%	.	.	?
CC1(OC(=O)C2CCCC2)C(=O)C=C2C=C(c3ccsc3)N(CCN3CCOCC3)C=C2C1=O (stereo not given)	.	3.1%	-0.3%	.	.	?
C#CCCOC(=O)N1C2=NC3=C(C(=O)N(Cc4ccc5c(c4)OCO5)C3=O)C3N(C)c4ccccc4[C@]23C[C@H]1CO (stereo not given in full)	?	.	.	.	.	-22.9%[14.2 µM]
C#CCN1C(=O)CC[C@@]23C1=NC(C(=O)OC)=C(C(=O)OC)[C@@H]2N(CC=C(C)C)c1ccccc13	?	.	.	.	.	15.1%&12.6%[14.2 µM]
OC[C@H]1O[C@H](C#Cc2ccccc2)C=C[C@@H]1O	?	.	.	.	.	19.6%&1.7%[14.2 µM]
O=C1Nc2ccc(I)cc2C1=Cc1cc(Br)c(O)c(Br)c1	?	.	.	.	.	0.1%
COc1ccc([C@]23Cc4ccccc4[C@H](O2)C2=C(CC4(CCCCC4)OC2=O)O3)cc1	?	.	.	.	.	?
C#CCN1C(=O)[C@]2(O[C@H](COc3ccccc3)CC3=C2CCC3)c2ccccc21	?	.	.	.	.	-41.4%[14.2 µM]
COC(=O)C1=C2CCO[C@@H]2[C@H]2[C@@H](C)[C@H](OC)c3ccccc3[C@H]12	?	.	.	.	.	0.4%[14.2 µM]
CO/S(=N\S(=O)(=O)c1ccc(Cl)cc1)c1ccc([N+](=O)[O-])cc1 (stereo not given)	?	.	.	.	.	20.5%

Reprinted from the entries so far (two entries):
SMILES	Lassa entry inh	NS1 inh	SARS PLP yeast	Cruzain inh Det	Cruzain inh noDet	MARV entry inh
COC(=O)C1=C2CCO[C@@H]2[C@H]2[C@@H](C)[C@H](OC)c3ccccc3[C@H]12	?	.	.	.	.	0.4%[14.2 µM]
CO/S(=N\S(=O)(=O)c1ccc(Cl)cc1)c1ccc([N+](=O)[O-])cc1 (stereo not given)	?	.	.	.	.	20.5%

(cont.)
SMILES	Lassa entry inh	NS1 inh	SARS PLP yeast	Cruzain inh Det	Cruzain inh noDet	MARV entry inh
Cc1cc(NC2CCCCC2)nc(-n2nc(C)cc2C)n1	?	.	.	.	.	?
CC(=O)OC[C@H]1O[C@@H](ON=C[C@@H](C)[C@H](OCc2ccccc2)C(C)C)[C@@H](OC(C)=O)[C@@H](OC(C)=O)[C@@H]1OC(C)=O	23.3%[14.3 µM]	.	.	.	.	?
CCOC(=O)NN=C1C[C@@H](O)[C@@H](O)[C@@H]2[C@H]3C(=O)N(C4CCCCC4)C(=O)[C@@H]3CC[C@@H]12	12.6%[14.3 µM]	.	.	.	.	-24.9%[14.2 µM]
CCN(CC)CCCN=C1NC(c2ccccc2)C(C(=O)OC)=C(C)N1CC (stereo not given)	?	.	.	.	.	?
C=CCNC(=O)N1CCc2nc(-c3ccccc3)c3c(c2C1)CO[C@@H](C)C3	?	.	.	.	.	-28.6%&-28.6%[14.2 µM]
COC(=O)CC=C1c2ccc(OC)cc2[C@@H](OC)[C@@H]1C	?	.	.	.	.	3.5%[14.2 µM]
CCOC(=O)CN1C(=O)[C@@]2(CC(C)=CC[C@@H](COc3ccccc3)O2)c2ccccc21	?	.	.	.	.	-19.5%[14.2 µM]
O=C1NC(=O)/C(=C/c2ccc3c(c2)OC(F)(F)O3)S1	?	.	.	.	.	?
C=CC[C@@H]1C=C[C@H](ON=C[C@@H](C)[C@H](OCc2ccccc2)C(C)C)[C@H](CO)O1	?	.	.	.	.	-10.4%[14.2 µM]
CC(C)=CCCC(C)=CCON=C1C[C@@H](O)[C@@H](O)[C@@H]2[C@H]3C(=O)N(Cc4ccc5c(c4)OCO5)C(=O)[C@@H]3CC[C@H]12	?	.	.	.	.	-16.6%[14.2 µM]
C=C(C)CCCN1C=C(C(=O)OCC)C(c2ccccc2)NC1=O (stereo not given)	?	.	.	.	.	-13.9%[14.2 µM]
CCOC(=O)C(c1ccc(OC)c(OC)c1)C1c2ccccc2C=C(C)N1C(=O)OC (stereo not given)	?	.	.	.	.	-17.5%&-17.5%[14.2 µM]
C[C@@H]1CC[C@H]2C(=O)N(Cc3cccc([N+](=O)[O-])c3)C[C@@H](O)CN2[C@@H]1c1cccc(Br)c1	-5.5%[14.3 µM]	.	.	.	.	?
CC1=CC[C@@H](COc2ccccc2)O[C@@]2(C1)C(=O)Nc1ccccc12	?	.	.	.	.	?
CCOC(=O)C1=C(CCl)NC(=O)N(C(C)=O)C1c1ccccc1 (stereo not given)	?	.	.	.	.	-21.7%[14.2 µM]
CO[C@H](C1CCCCC1)[C@H](C)C=CCC(=O)OCCCc1ccccc1	?	.	.	.	.	5.4%[14.2 µM]
CCOC(=O)OC[C@H]1O[C@H](c2ccc(C(C)=O)cc2)C=C[C@H]1Oc1ccc(-c2ccccc2)cc1	?	.	.	.	.	2.8%[14.2 µM]
O=C(c1ccc(Cl)cc1)N1CCN(c2ccc([N+](=O)[O-])c3ncccc23)CC1	?	.	.	.	.	?
NC(=S)c1ccc[n+]([C@@H]2O[C@@H](COP(=O)([O-])OP(=O)(O)OC[C@H]3O[C@@H](n4cnc5c(N)ncnc54)[C@H](OP(=O)(O)O)[C@@H]3O)C(O)C2O)c1 (stereo not given in full)	13.7%	.	.	.	.	22.8%
C=C1C[C@@]23CC[C@H]4[C@@](C)(CCC[C@@]4(C)C(=O)O)[C@@H]2CC[C@]1(O)C3	11.0%	.	.	.	.	10.9%
CC(=O)C1=C(C)N(Cc2ccccc2)C(=O)NC1c1ccco1 (stereo not given)	?	.	.	.	.	1.5%[14.2 µM]
C[C@H]1[C@@H](C(=O)N2CCCC2)CC(=NOCc2ccccc2)C(=NOCc2ccccc2)C[C@H]1c1ccccc1	?	.	.	.	.	-29.4%[14.2 µM]
C[C@]12CC[C@@H]3c4ccc(O)cc4C[C@@H](CCCCCCCCCS(=O)CCCC(F)(F)C(F)(F)F)[C@H]3[C@@H]1CC[C@@H]2O (stereo not given in full)	3.26µM*	.	.	.	.	?
CCOC(=O)CCN1C(=O)[C@@H]2[C@H]3[C@H](O)[C@H](O)CC(=NNC(=O)OCc4ccccc4)[C@@H]3CC[C@H]2C1=O	-34.2%[14.3 µM]	.	.	.	.	29.4%[14.2 µM]
COC[C@H]1O[C@]2(c3ccccc3)CO[C@@H]1[C@@H](C=Cc1ccccc1)C2	?	.	.	.	.	26.1%[14.2 µM]
COC(=O)[C@@H]1CC[C@H](C)[C@@H](c2ccc(C)cc2)N1C(=O)c1ccc(C=NO[C@H](C)c2cn([C@@H]3COC[C@@H]3O)nn2)cc1	-17.4%[14.3 µM]	.	.	.	.	3.7%[14.2 µM]
